# Vaccinia mCherry: qHTS for Stage-Specific Inhibitors of Vaccinia Orthopoxvirus: mCherry Reporter Primary qHTS | Vaccinia virus mCherry reporter infection, fluorescence; about a quarter of the inactives have no number | Potency, µM (top dose mostly 36.5 µM), for the others: top-dose activity change, negative = inhibition, actives largely listed as inhibitors | 310,000 compounds, 0.63% hits; active = well fitted inhibition curve with a large enough effect; inconclusive = small, poorly fitted or top-dose-only effect; inactive = no such curve, though single readings can be large or run the other way; tested in A549 cells; also: nearly all actives have a fitted effect of over 35% in size; inactives centre near -10
# VACV Venus inh: qHTS for Stage-Specific Inhibitors of Vaccinia Orthopoxvirus: Venus Reporter Primary qHTS | Vaccinia virus Venus reporter expression, fluorescence | Potency, µM (doses to about 36.5 µM), for inactives: top-dose activity change, negative = inhibition, usual class: inhibitors | 330,000 compounds, 0.46% hits; active means well fitted inhibition curve with a large enough effect; inconclusive means small, poorly fitted or top-dose-only effect; inactive means no such curve, though single readings can be large or run the other way; tested in A549 cells; also: nearly all actives have a fitted effect of over 30% in size; inactives centre near -10
# Numbers without * were called inactive; i = inactive; u = inconclusive; x = not tested or not shown; & = joins results of further samples; [ ] = remark or other dose. % is scaled to controls: 0 for no effect and ±100 for the full control effect; potency is read from the fitted curve at half-maximal effect.
SMILES,Vaccinia mCherry,VACV Venus inh
COc1ccc(N(CC(=O)NC(C)c2ccccc2)S(=O)(=O)c2c(C)nn(C)c2C)cc1 (centres undefined),-6%,0%
CCN(C(=O)c1cc2cc(Br)cc(OC)c2oc1=O)c1ccccc1,-1%,-2%
Cc1cc(C)c(C#N)c(SCCN2CCCCC2)n1,i,4%
COC(=O)CSc1nnc(-c2cccnc2)n1C,-9%,-12%
COc1ccc(Cc2nc3ccc(C(=O)N4CCC(N(C)C)C4)cc3o2)cc1 (centres undefined),i,-14%
CCCCCCCCCCCCN1[C@@H](CC(C)=O)c2cc(F)cc(F)c2S1(=O)=O,-12%,-14%
COCCc1nnc(NC(=O)Cc2ccccc2)s1,x,-6%
Cc1oc(-c2ccc3c(c2)OCCO3)cc1C(=O)NCC(=O)O,-13%,-9%
CN(C(=O)c1cc(COc2ccc(F)cc2Cl)on1)C1CCOC1 (centres undefined),-7%,-10%
O=C(O)CS(=O)CC(=O)NCc1cccc(C(F)(F)F)c1 (centres undefined),i,-7%
Cc1cnc(NC(=O)Cc2ccc(Br)cc2)s1,-15%,-15%
O=C(CSc1nnc(-c2cccnc2)n1Cc1ccccc1)NCc1ccccc1,i,-10%
NC(=O)CC(NC(=O)Cc1ccc(Cl)cc1)c1ccc(NCc2ccccc2)c([N+](=O)[O-])c1 (centres undefined),-15%,-22%
OB(O)c1csc2ccccc12,-8%,-25%
COc1ccc(CC2(CCc3ccncc3)C(=O)NC(=O)NC2=O)c(OC)c1,i,-10%
CCC(C)NC(=O)CC(NS(=O)(=O)c1ccc(Cl)cc1)c1ccco1 (centres undefined),x,-11%
Nc1ccc(S(=O)(=O)N2CCCC2)cc1Cl,u,5%
COc1cc2c(cc1NC(=O)CCCN1C(=O)CCC1=O)oc1ccccc12,-24%,-7%
CCCCCCCCCCCCCCCC[n+]1ccc(C)cc1,u,28µM*
CC1(C(=O)O)CCN1C(=O)/C=C/c1ccccc1 (centres undefined),6%,-5%
CC(=O)NC1(C(F)(F)F)NC(=O)N(c2ccc(F)cc2)C1=O (centres undefined),-5%,-6%
O=C1N/C(=C/c2cccn2-c2ccc(F)cc2)C(=O)N1Cc1ccccc1F,-20%,-22%
O=C(CNC(=O)C1CCCCC1)OCC(=O)c1ccc(C2CCCCC2)cc1,30%[activator],-6%
O=C(Nc1ccccc1C(=O)O)c1ccc(NC(=O)C2CCCO2)cc1 (centres undefined),-17%,-14%
CCC1C(=O)c2ccccc2N(C)C1=O (centres undefined),i,-4%
CCCC(=O)NC(c1ccc(OC)cc1)c1c(O)ccc2ccccc12 (centres undefined),u,-23%
CC(C)[C@@H]1COC(c2cccc(C3=N[C@H](C(C)C)CO3)n2)=N1,-11%,-8%
CCOc1ccc(N(C(=O)c2snc(C(N)=O)c2N)C(CC)C(=O)NC2CCCC2)cc1 (centres undefined),-9%,-8%
COc1ccc(OCc2cc(C(=O)N3CCSCC3)no2)c(Cl)c1,-13%,-9%
O=C(N/N=C/c1cccc(O)c1)c1ccc(NC(=O)c2cccc([N+](=O)[O-])c2)cc1,u,-15%
COc1ccccc1Cn1c(C)nnc1-c1cnn(C)c1N,-28%,-19%
CCCN1CCN(C(=O)C(C)n2nc(C)c3sc4ccccc4c3c2=O)CC1 (centres undefined),i,-22%
COc1cccc(C(=O)COc2ccccc2-c2ccccc2)c1,-26%,-21%
COCCNc1nc(Nc2ccc(C)cc2C)c2sc(-c3ccccc3)cc2n1,-16%,-17%
CC1(C)Cc2c(c(N3CCOCC3)nc3sc(C(N)=O)c(N)c23)CO1,-26%,-12%
Cc1ccc(Oc2cc(NC(=O)CCCn3nc([N+](=O)[O-])c(Cl)c3C)cc([N+](=O)[O-])c2)cc1,-8%,-5%
O=c1c2[nH]c3ccc(F)cc3c2ncn1Cc1ccncc1,i,0%
COc1ccc(/C=C2\SC(=O)N(CCCC(=O)Nc3ccc(C(=O)O)cc3)C2=O)cc1OC,-14%,-13%
CCOc1ccc(CN2CCN(Cc3ccc4cc(F)ccc4n3)CC2CCO)cc1 (centres undefined),-16%,-22%
CNC(=O)C1CC(=O)N(CCc2ccc(OC)c(OC)c2)C(=Nc2ccc(F)cc2)S1 (centres undefined),i,-21%
O=C(CN(C1CCCCC1)S(=O)(=O)c1ccc(F)cc1)NCC1CCCO1 (centres undefined),u,11µM*
CCc1ccccc1NC(=O)CN1C(=O)CCc2cc(S(=O)(=O)N3CCCCC3)ccc21,-4%,-5%
CCOC(=O)C1CC(c2ccc(Cl)cc2)=NNC1=O (centres undefined),-29%,-2%
CCCC1(C(=O)O)NC(c2ccccc2O)C2C(=O)N(Cc3ccccc3)C(=O)C21 (centres undefined),18%,6%
O=C(NCc1nnnn1-c1ccc(F)cc1)C1CC(=O)N(c2ccc(F)cc2)C1 (centres undefined),u,-23%
O=C(O)CCC(=O)NCCC1=c2ccccc2=N/C1=C\c1c(O)n(Cc2ccc(F)cc2)c(=S)[nH]c1=O,-5%,2%
CC(=O)c1cccc(NC(=O)c2ccc3c(c2)N(Cc2ccc(C)cc2)CCS3)c1,-7%,-1%
CCCS(=O)(=O)NCc1c(C)ncc2c1CCN(C(=O)c1ccc(Cl)cc1)C2,-6%,-6%
O=S(=O)(c1ccc(C(F)(F)F)cc1)N1CCN(CCOc2ccccc2)CC1,i,-3%
Cc1cnc(-c2nc3ccccc3n2C(C(=O)NC(C)(C)C)c2ccccc2)cn1 (centres undefined),1%,-15%

# More results
SMILES,Vaccinia mCherry,VACV Venus inh
Cc1ccc(C(=O)N2CCN(c3ccccc3)CC2)cc1NC(=O)c1nsc2ccccc12,-12%,-5%
O=C(CNC(=O)c1ccco1)OCc1ccc(C(=O)c2ccccc2)cc1,-14%,-17%
CC(=O)c1cccc(N(C(=O)c2ccco2)C(C(=O)NC2CCCC2)c2ccc(N3CCOCC3)cc2)c1 (centres undefined),-1%,-12%
CCOC(=O)c1ccc(N2C(=O)C(O)=C(C(C)=O)C2c2ccc(O)c(OC)c2)cc1 (centres undefined),i,-19%
O=C(CCCn1c(=O)oc2ccccc21)N1CCc2ccccc2C1,-14%,-8%
Cc1cc(C)nc(/N=C2\NC(=O)CC(C(=O)O)N2CCc2c[nH]c3ccccc23)n1 (centres undefined),i,-8%
Cc1cccc(C)c1NC(=O)CN(c1ccccn1)S(=O)(=O)c1ccc(F)cc1,i,-3%
CC1(C)CC(CC(=O)Nc2ccc([N+](=O)[O-])cc2)C(=O)O1 (centres undefined),-6%,-20%
O=C(OCCN1C(=O)c2cccc3c(N4CCOCC4)ccc(c23)C1=O)c1cccc(Cl)c1,-12%,-19%
COc1ccc(F)cc1C(=O)C1CCCN(Cc2c(C)n(C)n(-c3ccccc3)c2=O)C1 (centres undefined),i,-4%
Cc1cc(C)cc(N2CC(c3nnc(NC(=O)c4ccco4)s3)CC2=O)c1 (centres undefined),-7%,-13%
COc1ccc(C2(c3ccc(OC)cc3)NC(=O)N(CC(=O)Nc3ccc(C(=O)N(C)C)cc3)C2=O)cc1,-13%,-9%
COc1cccc(C(=O)c2cn(CC(=O)NCc3ccco3)c3nc(C)ccc3c2=O)c1,-12%,2%
CCN(CC)CCNC(=O)c1ccc(NC(=O)c2ccc(-n3cncn3)c([N+](=O)[O-])c2)cc1,-6%,-19%
COC(=O)c1ccc(NC(=O)CCn2cccc2)cc1,x,-14%
CN1C/C(=C/c2cccs2)C(=O)/C(=C\c2cccs2)C1,u,5%
COc1cccc(-c2cc(C(=O)N3CCN(c4ccc(F)cc4)CC3)no2)c1,-3%&-3%,-8%&5%
Cc1ncc(C[n+]2csc(CCO)c2C)c(N)n1,-12%&-10%,-8%&-1%
Cc1nc(NCc2cnn(C)c2)sc1-c1ccn(-c2cccc(F)c2)n1,-16%,-11%
CCOC(=O)C[C@H]1c2cc(F)ccc2S(=O)(=O)N1C1CCCC1,-4%,-6%&-11%
CCC(=O)Nc1cccc(-c2csc(-c3ccccc3)n2)c1,-18%,-12%
CCN(CC)CCOC(=O)CCc1cccc2ccccc12,-2%,-11%
O=C(NCC(c1cccs1)N1CCOCC1)c1ccc(Cl)s1 (centres undefined),-14%,u
Cc1cccc(N(CC(=O)Nc2c(C)n(C)n(-c3ccccc3)c2=O)S(C)(=O)=O)c1C,-18%,-24%
Cn1c(=O)cc(SCC(=O)N2CCN(c3ccc(F)cc3)CC2)c2ccc(Cl)cc21,-16%,-12%

# A run of entries taken from the entries so far, for reference:
SMILES,Vaccinia mCherry,VACV Venus inh
CCC(C)NC(=O)CC(NS(=O)(=O)c1ccc(Cl)cc1)c1ccco1 (centres undefined),x,-11%
Nc1ccc(S(=O)(=O)N2CCCC2)cc1Cl,u,5%
COc1cc2c(cc1NC(=O)CCCN1C(=O)CCC1=O)oc1ccccc12,-24%,-7%

# The list continues.
SMILES,Vaccinia mCherry,VACV Venus inh
Cc1ccc(CC(=O)N/N=C/c2ccc(OC(=O)c3ccc([N+](=O)[O-])cc3)cc2)cc1,i,-12%
CCN(CC)S(=O)(=O)c1ccc(C(=O)NCC(=O)NCc2ccc3c(c2)OCO3)cc1,0%,-4%
O=C(c1ccc2c(c1)N(Cc1ccccc1)CCS2)N1CCCCC1,-5%,-11%
C=CCn1c(C)nnc1SCC(=O)Nc1oc(C)c2c(C)n[nH]c(=O)c12,i,-14%
COc1cccc(NC(=O)CC(c2ccc(OC(C)C)cc2)c2ccccc2OC)c1 (centres undefined),-12%,-9%
CCOC(=O)c1ccc(N2C(=O)c3[nH]nc(-c4ccc(C)cc4)c3C2c2cccs2)cc1 (centres undefined),-13%,-13%
Cc1cccc(C(=O)NCC(C)NC(=O)c2cccc(C)c2)c1 (centres undefined),-16%,-9%
Cc1ccccc1C(=O)Nc1cccc(NC(=O)c2ccc(C(C)(C)C)cc2)c1,-27%,u
CCNC(=O)NC(=O)C(C)OC(=O)C(C)(C)Oc1ccc(Cl)cc1 (centres undefined),i,-2%
CCOC(=O)c1sc(NC(=O)c2cccs2)cc1C,x,-25%
COc1ccc(CCN(Cc2ccccn2)C(=S)Nc2ccccc2F)cc1OC,-5%,3%
Clc1ccc(-c2noc(-c3cccnc3NCc3ccco3)n2)cc1,-18%,-6%
O=C(c1ccc(-n2cncn2)c([N+](=O)[O-])c1)N1CCN(c2cccc(Cl)c2)CC1,-1%,-21%
O=c1ccnc(Nc2ccc([N+](=O)[O-])cc2)[nH]1,-4%,7%
Cc1cc(C)c(CN2CCN(C(=O)Cn3cnc(C(=O)Nc4ccc(C)c(C)c4)n3)CC2)c(C)c1,-22%,u
CCc1ccc(N2C(=O)CSC23C(=O)N(Cc2cccc(OC)c2)c2ccccc23)cc1 (centres undefined),-13%,-4%
CC(C)N1CCN(Cc2cnc(N3CCCC3)s2)CC1CCO (centres undefined),-1%,-5%
O=C1CC(NS(=O)(=O)c2cccs2)CN1c1ccc(F)cc1 (centres undefined),-11%,-6%
COc1ccccc1NC(=O)CSc1nnc2c(n1)[nH]c1ccccc12,-7%,-1%
Cc1ccc(C(=O)NCC(=O)OCc2c(F)cccc2Cl)s1,-16%,-5%
COc1ccc(NC(=S)NC23CC4CC(CC(C4)C2)C3)cc1OC,i,-16%
Cc1cc(C)n(-c2nnc(C)n2NS(=O)(=O)c2ccc(F)cc2)n1,-12%,-5%
O=C(CCNC(=O)c1ccco1)Nc1nc2ccccc2s1,u,-24%
Cc1ccc(NCc2cccn2-c2nnc(N3CCC(C(=O)NCc4ccccc4C)CC3)s2)cc1,-10%,-24%
COc1cccc(C2C=C(c3ccc(C)cc3)Nc3c(C(=O)Nc4ccc(F)cc4)cnn32)c1OC (centres undefined),u,-19%
CC(C)CN(CC(C)C)C(=O)Nc1ccccc1F,i,3%
O=C(COc1ccccc1)NCc1cccs1,x,2%
CC(=O)Oc1ccc(C(=O)Nc2cccc(-c3nnc(-c4ccco4)o3)c2)cc1,i,-18%
CCCCOC(=O)n1ccc(C(=O)Nc2ccccc2OC)n1,-15%,-8%
COc1ccccc1C(=O)NNC(=O)C(=O)NCc1ccccc1,-20%,-12%
CN(C)c1ccc(/C=C/c2sc3ccccc3[n+]2Cc2ccccc2)cc1,17%,-7%
CC(=O)OC[C@@H]1CN(Cc2cccc(C(F)(F)F)c2)C[C@H](n2cnc3c(N4CCOCC4)ncnc32)O1,-12%,15%
CC(C)OC(=O)c1nn2c(C(F)(F)F)cc(-c3ccco3)nc2c1Cl,x,-18%

# Entries of single compounds, quoted from the list. Screens in order: Vaccinia mCherry	VACV Venus inh
# O=c1c2[nH]c3ccc(F)cc3c2ncn1Cc1ccncc1 is listed as i	0%
# O=C(NCC(c1cccs1)N1CCOCC1)c1ccc(Cl)s1 (centres undefined) is listed as -14%	u
# CC(C)CN(CC(C)C)C(=O)Nc1ccccc1F is listed as i	3%
# O=C(CN(C1CCCCC1)S(=O)(=O)c1ccc(F)cc1)NCC1CCCO1 (centres undefined) is listed as u	11µM*
# CC(C)N1CCN(Cc2cnc(N3CCCC3)s2)CC1CCO (centres undefined) is listed as -1%	-5%

# Source: PubChem BioAssay (National Center for Advancing Translational Sciences (NCATS))
